Screening data deposited in PubChem by National Center for Advancing Translational Sciences (NCATS).
Rango-impB inh = inhibitors of Rango-importin beta complex formation; AID 540263; Potency, µM (titrated, usually from 92.2 µM), for the others: top-dose inhibition of complex formation; Q14974; 340,000 tested, 0.031% active; Rango CFP/YFP FRET sensor + importin beta, 45 min; active = rising FRET ratio curve, often small or poorly fitted; inconclusive = mostly compound fluorescence or quenching in the first reads; inactive = flat curves in all reads;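 note: potency is the fitted concentration of half-maximal effect; 0% = DMSO wells and 100% = buffer wells lacking importin beta; nearly all actives have a fitted effect of over 15% in size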
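Inhibition scored from the CFP 486 nm/YFP 530 nm FRET ratio 45 min after adding 0.125 microM importin beta to 50 nM Rango biosensor preincubated 5 min with compound (room temperature, PBS with DTT, Tween-20, BSA). No-importin wells as positive control.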
Rango dissoc inh = prevents RanGTP from dissociating the Rango-importin beta complex | O95149+P62826 | Biochemical FRET Rango-importin beta, RanGTP-induced dissociation | Potency, µM (highest dose often 46.1 µM), inactives show top-dose activity change, negative = inhibition | 340,000 tested, 0.071% active | AID 540253; active means falling FRET ratio curve, often poorly fitted, with flat reads before Ran was added; inconclusive means other falling curves, or compound fluorescence or quenching; inactive means flat or rising ratio curve;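 note: potency is the fitted concentration of half-maximal effect; % of control where 0% means no effect; nearly all actives have a fitted effect of over 45% in size; -100% = wells without RanGTP and RCC1; the record marks most hits as doubtful in a second field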
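Quantitative HTS using a FRET biosensor: 0.1 uM Rango, 0.25 uM importin beta, 0.6 uM Ran, 2 mM GTP, 0.2 uM RCC1 final, PBS with DTT, Tween-20 and BSA. Post-read taken 45 min after Ran addition.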
miR-21 FLuc = miR-21 reporter, rising signal | HeLa miR-21 FLuc reporter, luciferase, 48 h | Potency, µM (top dose mostly 38.3 µM), for the others: top-dose reporter change, positive = more light | 340,000 tested, under 10 active | AID 2288; active = well fitted rising curve with a large enough effect; inconclusive = small, poorly fitted or top-dose-only effect; inactive = no such curve, though single readings can be large or run the other way;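 note: % of control where 0% means no effect; miR-21 action dims this reporter so a rising signal means less miR-21 action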
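Luminescence from a firefly luciferase reporter carrying a miR-21 binding site downstream, stably expressed under a CMV promoter in HeLa cells that make miR-21 endogenously, reports miRNA modulation after 48 h compound exposure up to approximately 40uM final.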
GLA inh pH 4.5 = alpha-galactosidase A (human) inhibition, pH 4.5. P06280. purified enzyme, 4-MU-alpha-Gal fluorescence, pH 4.5. activity change, negative = inhibition, % at 105 µM. 230,000 tested, under 10 active; inconclusive = small, poorly fitted or top-dose-only inhibition, or a rising curve; inactive = flat fitted curve, though single readings scatter; no compound was filed as active;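 note: 0% = full activity with enzyme and -100% = basal without enzyme; dose as in the result columns while the protocol names 77 µM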
Target sequence (P06280 whole entry, looked up): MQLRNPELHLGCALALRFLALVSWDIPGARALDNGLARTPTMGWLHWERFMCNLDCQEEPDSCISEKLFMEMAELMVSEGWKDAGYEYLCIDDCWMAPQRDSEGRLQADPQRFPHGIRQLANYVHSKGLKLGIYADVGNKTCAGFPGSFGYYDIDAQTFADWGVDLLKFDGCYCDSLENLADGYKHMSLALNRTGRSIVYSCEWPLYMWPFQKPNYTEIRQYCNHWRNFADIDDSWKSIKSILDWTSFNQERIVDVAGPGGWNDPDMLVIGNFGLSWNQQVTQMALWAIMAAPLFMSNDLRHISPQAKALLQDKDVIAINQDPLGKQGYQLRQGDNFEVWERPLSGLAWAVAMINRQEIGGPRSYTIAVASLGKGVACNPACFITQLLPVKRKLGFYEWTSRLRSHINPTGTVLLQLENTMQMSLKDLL
Active calls of the source: *; ? = inconclusive; / = not tested or not shown; & = joins results of further samples; [ ] = dose if it differs, or a comment. Not all compounds are listed (hit frequency here may not be typical).

Compound	Rango-impB inh	Rango dissoc inh	miR-21 FLuc	GLA inh pH 4.5
COc1ccc(N2C(=O)NC(=O)/C(=C/c3ccc4c(c3)Cc3ccccc3-4)C2=O)cc1	/	/	-11.6%	3.1
COc1ccc(CN2C(=O)NC(=O)/C(=C\c3ccco3)C2=O)cc1	?	-26.0%	0.3%	2.6
O=C(C1CCN(S(=O)(=O)c2ccccc2)CC1)N1CCC2(CC1)OCCO2	7.9%	-0.1%	-2.1%	8.5
CC(C)(C)C(=O)N1Cc2ccccc2-n2nncc2C1	2.7%	-2.4%	/	/
O=c1[nH]c(O)c(Cc2ccc3c(c2)OCO3)c(=O)[nH]1	3.5%	-1.4%	-1.4%	6.2
CC(OC(=O)c1cn(C)c2ccccc12)C(=O)N1CCCC1 (stereo not drawn)	2.0%	-5.9%	/	/
COc1ccc(-c2nn(CCC#N)cc2C(=O)O)cc1	4.6%	-9.7%	-2.9%	-5.2
Cc1ccccc1NC(=O)NCCN1CC1	-0.2%	13.0%	-4.6%	-3.2
COc1ccc2c(c1OC)C(=O)OC2c1c(O)n(Cc2ccc(F)cc2)c(=O)[nH]c1=O (stereo not drawn)	-3.3%	-0.9%	-3.8%	-5.9
Cc1cccc(-n2c(-c3ccccc3)nc3ccccc3c2=O)n1	-3.1%	0.4%	-0.6%	-1.1
CCC1CN1P1(=O)OCC(C)([N+](=O)[O-])CO1 (stereo not drawn)	-3.6%	2.0%	/	/
CCOc1ccc(/C=C/C(=O)C(C(N)=O)=C2SCCS2)cc1	?	?	-42.0%	10.3
Cc1ccc(-c2nn(CCC#N)cc2C(=O)O)cc1C	-2.6%	5.0%	-2.0%	3.4
CCC(=NCCO)c1c(O)n(-c2ccc(Cl)cc2)c(=O)[nH]c1=O	1.2%	0.7%	4.2%	2.3
Cc1ccc(N(C)C(=O)Oc2cccc3ccc(C)nc23)cc1	4.4%	16.2%	-12.3%	8.0

The list continues.
Compound	Rango-impB inh	Rango dissoc inh	miR-21 FLuc	GLA inh pH 4.5
COC(=O)C(NC(=S)N1CC2C[C@@H](C1)Cn1c2cccc1=O)C(C)C (stereo partly drawn)	3.0%	-4.5%	0.6%	/
O=c1[nH]c(=O)n(C2CCCCC2)c(O)c1C=Nc1ccc(N2CCOCC2)cc1	5.3%	-9.0%	-3.2%	3.7
Cn1c(O)c(C(=Nc2ccc(F)cc2)c2ccccc2Cl)c(=O)n(C)c1=O	2.0%	1.1%	-3.5%	-3.4
COC(=O)C1=C(c2ccc(OCc3ccccc3)cc2)C[C@@H]2CC[C@H]1N2C(=O)NCc1ccccc1	3.6%	5.8%	/	/
CCN(CC)CCCN=Cc1c(O)n(-c2ccccc2F)c(=O)[nH]c1=O	0.1%	-4.3%	-1.8%	-0.1
CCCCC/C(=N/O)c1c(C)[nH]c2ccccc12	-3.0%	0.4%	-0.9%	-28.5
O=C(OCC(=O)c1ccc([N+](=O)[O-])cc1)/C(=C\c1ccc(Cl)cc1)NC(=O)c1ccccc1	-3.2%	11.0%	-5.2%	-1.4
COC(=O)C1=C(c2ccc(-c3ccccc3)c(F)c2)C[C@@H]2CC[C@H]1N2C(=O)NC1Cc2ccccc2C1	-7.8%	1.2%	/	/
CC1=C(O)C(=O)C=C2C1=CC=C1C2(C)CCC2(C)C3CC(C)(C(=O)O)CCC3(C)CCC12C (stereo not drawn)	-0.9%	-14.0%	/	/
O=C(NCCc1ccccc1)c1ccc2nccnc2c1	?	-6.6%	4.4%	3.0
Cc1c(C(c2ccc(Br)cc2)c2c(O)c3ccccc3oc2=O)c(=O)n(-c2ccccc2)n1C (stereo not drawn)	-2.3%	-4.9%	2.5%&7.6%	-1.0
N#CCCn1cc(C(=O)Nc2ccccc2Cl)c(-c2ccc(F)cc2)n1	-0.3%	12.5%	-3.0%	/
C[C@]12CCC3C(CC[C@H]4C[C@@H](O)CC[C@]34C)[C@H]1C=CC2=O (stereo partly drawn)	2.3%	6.7%	/	/
c1ccc(N2C3C4CC(C5CCCC54)C32)cc1 (stereo not drawn)	-0.1%	-4.0%	/	/
Cc1ccc(N2C(=O)CC(=O)NC2=O)c(C)c1	-0.8%	-14.3%	1.3%	/

The listing continues.
Compound	Rango-impB inh	Rango dissoc inh	miR-21 FLuc	GLA inh pH 4.5
COc1ccc(CN2C(=O)NC(=O)/C(=C\c3cccc(OC)c3OC)C2=O)cc1	11.5%	-10.4%	-1.9%	8.9
Fc1ccc(CNC2CN3CCC2CC3)cc1 (stereo not drawn)	-0.9%	8.8%	7.3%	/
CC(=O)OC1(c2ccccc2)CCN(C2CCCCC2)CC1C (stereo not drawn)	1.0%	5.9%	1.5%	4.6
O=c1ccc2cc(O[C@@H]3O[C@H](CO)[C@@H](O)[C@H](O)[C@H]3O)c(O)cc2o1	?	?	/	/
CCCCC(=O)N/N=C/c1c(O)n(Cc2ccco2)c(=O)[nH]c1=O	-0.2%	-5.2%	-1.6%	3.7
Cc1c(C(=O)N2CCC3(CC2)OCCO3)oc2ccc(S(=O)(=O)N3CCOCC3)cc12	0.3%	1.5%	-6.1%	-0.4
CN1CCN(/N=C/c2c(O)n(C)c(=O)n(C)c2=O)CC1	0.4%	17.4%	-2.3%	-0.8
Cc1nc2ccccc2c(=O)n1-c1ccccc1[N+](=O)[O-]	9.1%	8.5%	-11.2%	3.0
CCN1CCC2(CC1)NC(CO)(CO)CO2	0.3%	13.0%	-3.2%	8.6
COc1ccc(Cc2c(O)[nH]c(=S)[nH]c2=O)cc1	-3.8%	5.1%	-9.0%	/
C=Cn1ccnc1P(O)(=S)c1nc(C)c(CCOC(C)=O)s1 (stereo not drawn)	-1.0%	-4.5%	2.0%	2.1
CCC(C)n1c(O)c(C=NCCc2ccccc2)c(=O)[nH]c1=S (stereo not drawn)	-3.6%	6.2%	3.9%	0.9
CC12CCC3C(CCC4CC(=O)CCC43C)C1CC(=NO)C2=O (stereo not drawn)	1.3%	2.7%	/	/
Cc1ccc2nc(C)n(-c3ccc(F)cc3)c(=O)c2c1	0.1%	-24.6%	-1.7%	7.0
C=CCN(c1ccc(C(=O)N(CC)CC)cc1)S(C)(=O)=O	-3.2%	-4.0%	-1.6%	-0.2

By substructure: the entries above with a cyano group
Compound	Rango-impB inh	Rango dissoc inh	miR-21 FLuc	GLA inh pH 4.5
COc1ccc(-c2nn(CCC#N)cc2C(=O)O)cc1	4.6%	-9.7%	-2.9%	-5.2
Cc1ccc(-c2nn(CCC#N)cc2C(=O)O)cc1C	-2.6%	5.0%	-2.0%	3.4
N#CCCn1cc(C(=O)Nc2ccccc2Cl)c(-c2ccc(F)cc2)n1	-0.3%	12.5%	-3.0%	/

Additional entries follow:
Compound	Rango-impB inh	Rango dissoc inh	miR-21 FLuc	GLA inh pH 4.5
Cn1cccc1/C=C1/C(=O)NC(=O)N(Cc2ccccc2)C1=O	-0.2%	-10.7%	6.2%	-4.9
CC(=O)Nc1ccc(OC(=O)c2ccccc2N)cc1	9.9%	-0.2%	-7.8%	-3.7
CCOc1ccc(N=Cc2c(O)n(CCc3ccc(OC)c(OC)c3)c(=O)[nH]c2=O)cc1	0.0%	0.8%	-2.5%	-1.8
COC(=O)C1=C(c2ccc(Cl)c(C(F)(F)F)c2)C[C@@H]2CC[C@H]1N2C(=O)N1CCC(O)(c2ccc(Cl)cc2)CC1	-0.1%	2.2%	/	/
Cc1cc(OCCCC(=O)NCc2cccs2)ccc1Cl	-0.2%	12.8%	-7.2%	0.6
Oc1cccc(/C=N/NP(=S)(c2ccccc2)c2ccccc2)c1	0.3%	15.6%	-2.9%	-0.8
O=c1c2ccccc2nc(-c2ccco2)n1-c1ccc(Br)cn1	3.6%	0.0%	-2.7%	0.9
CC12CNCC(C)(CNC1)C2O (stereo not drawn)	0.9%	15.9%	-0.5%	6.1
CCc1ccc(-n2c(O)c(C(C)=O)c(=O)[nH]c2=O)cc1 (tested in a mixture with another compound)	-0.2%	0.8%	-5.8%	-5.2
CC(C)n1c(=O)c(C=Nc2ccc(Cl)cc2)c(O)n(Cc2ccco2)c1=O	/	/	-10.2%	-8.0
CC(C)[C@H]1CC2C3CC=C4C[C@@H](O)CC[C@]4(C)C3CC[C@]2(C)[C@H]1O (stereo partly drawn)	-3.3%	7.0%	/	/
CCOc1ccc(-c2cc(C(=O)N3CCC4(CC3)OCCO4)c3ccccc3n2)cc1	0.0%	13.4%	/	/
Cc1ccc(N2C(=O)NC(=O)/C(=C/c3cnc(-c4ccccc4)nc3)C2=O)cc1C	3.2%	1.2%	-24.1%	0.8
C=CCn1c(O)c(C(C)=NCCc2c[nH]c3ccccc23)c(=O)[nH]c1=O	6.4%	7.7%	2.5%	-1.7
OC(COCc1ccc(Cl)cc1)CN1CC=C(c2ccccc2)CC1 (stereo not drawn)	-0.6%&4.0%	1.8%&1.5%	0.8%	-0.2

The results go on:
Compound	Rango-impB inh	Rango dissoc inh	miR-21 FLuc	GLA inh pH 4.5
O=P(O)(Oc1ccccc1)OC(c1ccccc1)C(F)(F)C(F)(F)F (stereo not drawn)	-2.3%	-8.7%	-0.4%	5.6
Cc1ccc(P(=S)(c2ccc(C)o2)N2CCOCC2)o1	-1.5%	-5.2%	-8.3%	-1.8
CN1CCCCC1c1ccc(-c2cccnc2)nc1 (stereo not drawn)	-1.4%	0.2%	2.4%	-5.3&-0.9&9.9
CN1CCN(CCC(=O)OC2CC3CCC(C2)N3C)CC1 (stereo not drawn)	2.0%	-16.4%	-4.3%	-4.6
CCCCC(CC)CNCC(O)c1ccccc1 (stereo not drawn)	-0.3%	10.7%	-11.8%	-7.8
COc1cc(OC)c(C=O)c(OC(=O)N(C)C)c1	-3.4%	-0.5%	0.3%	2.8
N#CC(C#N)=Cc1ccc(C=C(C#N)C#N)cc1	?	-8.5%	-0.5%	-7.0
O=C(CCl)NCC1CCCO1 (stereo not drawn)	-8.7%	-1.9%	7.1%	6.6
CC(C)CN(C(=O)CN1CC=C(c2ccccc2)CC1)c1c(N)n(CC(C)C)c(=O)[nH]c1=O	-0.1%	-8.1%	-0.7%	8.3
Cn1cc(C=C(C#N)C#N)c2ccccc21	?	?	-2.0%	-2.6
Cc1cc(Cl)ccc1C(=O)C1CCCN(C2CCSCC2)C1 (stereo not drawn)	-0.1%	-4.0%	-4.9%	2.9
CC12CN3CC(C)(CN(C1)P3(=O)Oc1ccccc1)C2=O (stereo not drawn)	-0.7%	-13.9%	-6.4%	-5.3
COC(=O)C1=C(c2ccc(C(C)=O)cc2)C[C@@H]2CC[C@H]1N2C(=O)NC1CC1	4.3%	-5.1%	/	/
CCC1CN(C)CCC1(OC(C)=O)c1ccccc1 (stereo not drawn)	0.0%	14.6%	-2.5%	-1.0
CCOc1ccc(-n2c(O)c(C=Nc3ccc(NC(C)=O)cc3)c(=O)[nH]c2=O)cc1	?	?	3.7%	3.0

Further compounds follow:
Compound	Rango-impB inh	Rango dissoc inh	miR-21 FLuc	GLA inh pH 4.5
O=[N+]([O-])c1ccc(Cl)c([N+](=O)[O-])c1	0.5%	17.5%	/	/
Cc1cc(N(CCCl)CCCl)ccc1/C=N/NC(=O)c1ccco1	?	-27.9%	-39.4%	-33.1
CCOC(=O)CC(SP1(=S)OCC2(CCCCC2)CO1)C(=O)OCC (stereo not drawn)	1.0%	-16.2%	/	/
Cn1c(O)c(N=Nc2ccc(S(=O)(=O)N3CCOCC3)cc2)c(=O)n(C)c1=O	-3.1%	0.3%	-11.8%	3.5
COc1ccccc1CN1CCCC(C(=O)c2ccccc2OC)C1 (stereo not drawn)	-3.9%	?	5.8%	/
S=c1nc(-c2ccccc2)n(-c2ccccc2)[nH]1	-2.6%	1.4%	-32.6%	/
O=C(c1ccc(N2CCCCC2)c([N+](=O)[O-])c1)N1CCC2(CC1)OCCO2	3.3%	-3.5%	0.0%	-3.2[21.1 µM]
C[C@]12CCC3C(CC[C@H]4C[C@H](O)CC[C@]34C)C1CC(=O)[C@@H]2O (stereo partly drawn)	-2.5%	8.4%	/	/
